Assay outcomes deposited in PubChem by National Center for Advancing Translational Sciences (NCATS).
MARV entry inh – inhibitors of Marburg virus binding or cell entry | Marburg virus pseudotyped entry inhibition, cell reporter; control for the full effect not named in the record; about a third of the inactives were read at about 46 µM | Potency, µM (doses to about 37.8 µM), without a hit: top-dose activity change, negative = inhibition, actives largely listed as inhibitors | actives 1.8% (n = 300,000) | AID 540276; active = well fitted inhibition curve with a large enough effect; inconclusive = small, poorly fitted or top-dose-only effect, or effect the other way; inactive = flat fitted curve, though single readings scatter; tested in HEK293 cells; about a fifth of its hits are not listed in these tables; further: on the % scale 0 is the no-effect control and ±100 the full control effect; luciferase read-out
Cruzain Triton – blocks cruzain activity in presence of Triton detergent; P25779; purified cruzain, Z-FR-AMC fluorescence, 0.01% Triton; Potency, µM, for inactives: max response, negative = inhibition, actives largely listed as inhibitors; actives 0.43% (n = 200,000); AID 1478; active means well fitted curve in the direction sought with a large enough effect; inconclusive means small, poorly fitted or top-dose-only effect, or another doubt; inactive means no such curve, though single readings can be large; an effect the other way counts as inactive or inconclusive;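 further: plate controls were neutral wells for no effect and buffer without enzyme for full effect; nearly all actives have a fitted effect of over 40% in size; top concentration of the series not given in the record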
Target sequence (P25779 123-467 limits assumed): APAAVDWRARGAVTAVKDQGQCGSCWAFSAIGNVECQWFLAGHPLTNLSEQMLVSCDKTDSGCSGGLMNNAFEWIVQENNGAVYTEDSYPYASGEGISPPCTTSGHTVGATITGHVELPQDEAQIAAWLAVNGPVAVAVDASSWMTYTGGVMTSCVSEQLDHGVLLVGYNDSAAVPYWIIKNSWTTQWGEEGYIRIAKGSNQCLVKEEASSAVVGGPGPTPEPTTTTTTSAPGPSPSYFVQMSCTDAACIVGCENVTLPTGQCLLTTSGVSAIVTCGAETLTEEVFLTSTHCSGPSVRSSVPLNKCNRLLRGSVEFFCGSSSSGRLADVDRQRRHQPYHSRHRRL
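Read-out: AMC fluorescence (360 nm excitation, 450 nm emission), four reads over 2 min, first-to-third difference used. Conditions: cruzain 1.5 nM, Z-FR-AMC 2 uM, pH 5.5 acetate, 5 mM DTT, 0.01% Triton X-100.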
NS1 function inh – blocks influenza NS1 protein function; S. cerevisiae slowed by influenza A NS1, growth recovery by OD600; Potency, µM (highest dose often 46.1 µM), for the others: at the top dose activity, positive = more growth; actives 0.4% (n = 270,000); further: actives are rising curves; nearly all actives have a fitted effect of over 50% in size
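In this qHTS, NS1 from influenza A is expressed in budding yeast, where it slows growth. Cells are switched from glucose to 2% galactose medium (pH 6.0, -URA), treated with compound, and growth recovery is read at OD600.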
RE007 growth inh – less growth of the S. pombe RE007 Vpr strain; actives 0.21% (n = 360,000); S. pombe RE007 Vpr strain, BacTiter-Glo ATP luminescence, 24 h; control for the full effect not named in the record; AID 651644; Potency, µM (titrated, usually from 92.2 µM), for inactives: at the top dose activity change, negative = less growth; active = well fitted falling curve with a large enough effect; inconclusive = small, poorly fitted or top-dose-only effect; inactive = no such curve, though single readings can be large or run the other way;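 further: on the % scale 0 is the no-effect control and ±100 the full control effect; nearly all actives have a fitted effect of over 50% in size; the assay follows cell death caused by Vpr and the record does not say whether a fall means rescue or toxicity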
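Fission yeast RE007 carrying one integrated HIV-1 vpr copy, seeded at OD 0.01 in PMG+AL medium with 23 nL pinned compound. Grown 24 h at 30 degrees; viability read by BacTiter-Glo luminescence after 5 min.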
Lassa entry inh – blocks Lassa virus binding to or entry into cells | Lassa virus pseudotype entry inhibition, cell reporter; control for the full effect not named in the record | Potency, µM (doses to about 37.9 µM), without a hit: at the top dose activity change, negative = inhibition, most hits filed as inhibitors | actives 1.2% (n = 300,000) | AID 540256; active means well fitted inhibition curve with a large enough effect; inconclusive means small, poorly fitted or top-dose-only effect, or effect the other way; inactive means flat fitted curve, though single readings scatter; tested in HEK293 cells; further: on the % scale 0 is the no-effect control and ±100 the full control effect; nearly all actives have a fitted effect of over 50% in size; luciferase read-out
SARS PLpro yeast – blocks SARS-CoV papain-like protease in a yeast assay. S. cerevisiae expressing SARS-CoV PLpro, growth rescue; control for the full effect not named in the record. Potency, µM (top dose mostly 32.9 µM), for inactives: at the highest dose activity, positive = growth rescue. actives 0.19% (n = 330,000). AID 485353; further: 0% is about no effect; nearly all actives have a fitted effect of over 55% in size; growth read by luminescence after 48 h
2A StopGo – FMDV 2A StopGo reporter, luciferase signal; human cells with a luciferase reporter of 2A StopGo recoding; control for the full effect not named in the record; AID 1159524; Potency, µM (titrated, usually from 57.9 µM), for inactives: top-dose signal change, negative = less light; actives 1.2% (n = 410,000); active = well fitted falling curve with a large enough effect; inconclusive = small, poorly fitted or top-dose-only effect; inactive = no such curve, though single readings can be large or run the other way; tested in HEK293T cells; further: on the % scale 0 is the no-effect control and ±100 the full control effect; nearly all actives have a fitted effect of over 45% in size; luciferase light after 4 h
Cruzain inh noDet – cruzain (T. cruzi) inhibition without detergent; P25779; purified cruzain, Z-FR-AMC fluorescence, no detergent; Potency, µM, without a hit: max response, negative = inhibition, most hits filed as inhibitors; actives 2.3% (n = 200,000); AID 1476; active means well fitted curve in the direction sought with a large enough effect; inconclusive means small, poorly fitted or top-dose-only effect, or another doubt; inactive means no such curve, though single readings can be large; an effect the other way counts as inactive or inconclusive;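 further: plate controls were enzyme without inhibitor for no effect and buffer without enzyme for full effect; nearly all actives have a fitted effect of over 40% in size; top concentration of the series not given in the record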
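Purified cruzain at 1.5 nM, pre-incubated 15 min with compound at room temperature in 100 mM sodium acetate pH 5.5, 5 mM DTT, 0.00005% Triton X-100. Reaction started with 2 uM Z-FR-AMC; AMC fluorescence increase over 60 s gives rate.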
* marks the source's active call; other numbers are inactive results; ? = inconclusive; . = not tested or not shown; & = joins results of further samples; [ ] = another dose, or the depositor's remark. Unless noted, the call rests on the fitted dose curve; in most records, active means well fitted rising curve with a large enough effect; inconclusive means small, poorly fitted or top-dose-only effect; inactive means no such curve, though single readings can be large or run the other way. Potency means the concentration at half of the fitted maximal effect.

Second line of a record – NS1 function inh | MARV entry inh | Lassa entry inh | Cruzain Triton | SARS PLpro yeast | Cruzain inh noDet | 2A StopGo | RE007 growth inh
Cc1ccc(O)c(C(=O)c2cc(C#N)c(=O)n(C(C)c3ccccc3)c2)c1 (configuration not stated)
→ . | -29% | ? | . | 0% | . | -22% | 1%
Cc1ccc(CNc2ccc(Cl)cc2[N+](=O)[O-])cc1
→ -3% | 7% | 4% | -1.1% | -7% | 1% | 32%[activator] | 4%
CCSC(N)=Nc1ccc(C(F)(F)F)cc1
→ -31% | 28%&28% | . | -6.6% | . | -6% | . | .
Oc1ccc(/C=N/Nc2cc(N3CCCC3)nc(N3CCCC3)n2)cc1
→ 15% | ? | -26% | -6.3% | 2% | 13% | . | 8%
COc1ccccc1C(=O)NC(=S)Nc1ccc(S(=O)(=O)N2CCN(C)CC2)cc1
→ 21% | ? | ? | -7.2% | -6% | 2% | 0% | -8%
CCCOc1ccc(-c2cc(C(F)(F)F)c(C#N)c(SCC(=O)O)n2)cc1
→ . | -24%[46.1 µM] | -16% | . | -2% | . | ? | -15%
Cc1ccc(CNC(=O)CCCCn2c(=O)c3ccccc3n(Cc3ccc(Cl)cc3)c2=O)cc1
→ . | 1%[46.1 µM] | -4%[46.1 µM] | -2.4% | . | 4% | -6% | .
CCN1CCC2(CC1)Oc1c(OC)cccc1C1CC(c3cccnc3)=NN12 (configuration not stated)
→ -3% | ? | -11%[46.1 µM] | . | 0% | . | 0% | -15%
CC(C)C[C@H](NC(=O)c1nc[nH]c1C(=O)NCC(=O)OC(C)(C)C)C(=O)OCc1ccccc1
→ -5% | . | . | . | 1% | . | -26% | 4%
C[C@H](c1ccccc1)n1nnc(COCc2ccccc2)c1C#CCOCc1ccccc1
→ -12% | . | . | . | -3% | . | -8% | -19%
FC(F)(F)c1nnc2c3ccccc3c(Cl)nn12
→ 6% | . | . | . | 0% | . | ? | -27%
COc1ccc(CNC(=O)CCS(=O)(=O)c2ccc(Br)cc2)cc1
→ 3% | . | . | . | 0% | . | 4% | 3%
COC(=O)NCC(C)OC(=O)Nc1ccc(Cl)cc1 (configuration not stated)
→ 2% | -2%[46.1 µM] | 1%[46.1 µM] | . | 0% | . | -2% | 2%
Cc1cc(S(=O)(=O)Nc2ccccc2C)ccc1F
→ -38% | -2% | 14% | -2.7% | -4% | 5% | 0% | -3%
C=CCn1c(SC(C)C#N)nc2sc(CC)cc2c1=O (configuration not stated)
→ . | 25%[46.1 µM] | 18%[46.1 µM] | . | -2% | . | 10% | 9%
COc1ccc(NC(=O)Cn2cnc3sc(C)c(S(=O)(=O)N4CCN(C)CC4)c3c2=O)cc1OC
→ . | ? | ? | -0.3% | 0% | -3% | -2%&14% | -10%
O=C(NCc1ccccc1Cl)c1cc(=O)[nH]c2ccc(S(=O)(=O)N3CCCCC3)cc12
→ . | 4%[46.1 µM] | 29%[46.1 µM] | -0.9% | . | 6% | -12% | .
C/C=C/C(=O)N1CC2(CC(c3cccc(NC(=O)COc4ccc(Cl)cc4)c3)=NO2)C[C@@H]1C(N)=O (some centres not stated)
→ -3% | . | . | . | 2% | . | -6% | -8%
CCOC(=O)C1=NN(c2ccc(Cl)cc2)C(=O)C1
→ 0% | . | . | . | -2% | . | 37%[activator] | -12%
COc1ccccc1Nc1cc(C(=O)NCCCN2CCOCC2)c2ccccc2n1
→ -15% | -1% | . | -18% | -1% | -12% | -13% | 3%
O=c1cc(C(F)(F)F)nc(-c2ccccc2OC(F)(F)F)[nH]1
→ 5% | . | . | . | -1% | . | -2% | 6%
O=C(NNC(=O)c1ccccc1OCc1ccc(F)cc1)c1ccncc1
→ . | ? | 16% | . | -5% | . | -3% | 0%
Cc1cc2nc(SCCOC(=O)Nc3ccc(Cl)cc3)nc(C)c2cc1C
→ 13% | ? | 17% | -4.1% | 34% | 7% | 0% | -5%
COc1cc(C2/C(=C(\O)c3ccc4c(c3)CC(C)O4)C(=O)C(=O)N2CCCn2ccnc2)ccc1O (configuration not stated)
→ -18% | ? | 0% | -2.8% | -4% | -5% | -16% | -1%
C=CCn1c(SCc2ccc(C(=O)O)cc2)nc2sc(C)c(C)c2c1=O
→ -10% | . | . | . | -3% | . | 4% | -24%
Nc1ccc2nc(-c3ccccc3)sc2c1
→ -10% | ? | 3.2µM* | -11% | . | ? | 10µM* | ?
CC(C)Oc1ccc(C(=O)Nc2ccc3oc(-c4ccncc4)nc3c2)cc1
→ . | . | -3%[46.1 µM] | 5.6% | . | 7% | ? | .
COc1ccccc1C(c1nnnn1Cc1ccccc1)N1CCN(C2CCCC2)CC1 (configuration not stated)
→ 3% | ? | -11% | 1.1% | -19% | 2% | -12% | -3%
Cc1cc(Oc2ccc(C)c(Cl)c2)nc(SCC(=O)c2ccccc2)n1
→ -3% | ? | ? | -7.4% | -4% | 7% | ? | 5%
CCCc1nn2c(=O)cc(COC(=O)c3ccc(NC(=O)C(C)Oc4ccccc4)cc3)nc2s1 (configuration not stated)
→ . | . | ? | -0.6% | . | 2% | -3% | .

3 entries drawn at random from those above, as already listed:
Second line of a record – NS1 function inh | MARV entry inh | Lassa entry inh | Cruzain Triton | SARS PLpro yeast | Cruzain inh noDet | 2A StopGo | RE007 growth inh
CCCc1nn2c(=O)cc(COC(=O)c3ccc(NC(=O)C(C)Oc4ccccc4)cc3)nc2s1 (configuration not stated)
→ . | . | ? | -0.6% | . | 2% | -3% | .
COc1ccc(NC(=O)Cn2cnc3sc(C)c(S(=O)(=O)N4CCN(C)CC4)c3c2=O)cc1OC
→ . | ? | ? | -0.3% | 0% | -3% | -2%&14% | -10%
Cc1cc2nc(SCCOC(=O)Nc3ccc(Cl)cc3)nc(C)c2cc1C
→ 13% | ? | 17% | -4.1% | 34% | 7% | 0% | -5%

More entries
Second line of a record – NS1 function inh | MARV entry inh | Lassa entry inh | Cruzain Triton | SARS PLpro yeast | Cruzain inh noDet | 2A StopGo | RE007 growth inh
COc1ccc(CCNC(=O)Cc2c(C)c3c(cc(C)c4c(C)coc43)oc2=O)cc1
→ . | -1%[46.1 µM] | 19%[46.1 µM] | 0.9% | . | -4% | -6% | .
Cc1cc(=O)oc2cc(NC(=S)NCc3ccccn3)ccc12
→ 8% | . | . | . | -1% | . | 53%[activator] | -4%
COc1ccccc1/C=C(\C#N)C(=O)c1cccn1C
→ 0% | . | . | . | 1% | . | -13% | 3%
CCCc1ccc(C#N)c(SC2CC(=O)N(c3ccc(OC)cc3)C2=O)n1 (configuration not stated)
→ 3% | -9%[46.1 µM] | 0% | . | -1% | . | 9% | -16%
O=C(NCCCN1CCOCC1)C(=O)NCc1ccccc1
→ 2% | 28%[46.1 µM] | ? | . | 1% | . | -8% | 0%
Cc1cc(N=Cc2c(O)ccc3ccccc23)no1
→ 0% | 2% | 9%[14.3 µM] | 1.9% | -4% | -14% | -6% | -6%
COc1ccc2c(c1)CC(C(=O)NCCN1CCN(c3cccc(C)c3C)CC1)CO2 (configuration not stated)
→ . | . | -18%[46.1 µM] | -2.1% | . | -3% | ? | .
O=C(CSc1nnnn1C1CCCCC1)NCc1cccc(C(=O)O)c1
→ -5% | 8% | ? | 8.0% | 4% | 5% | -11% | 8%
COc1cc(C(=O)NCCN2C(=O)S/C(=C\c3cccs3)C2=O)cc(OC)c1OC
→ 0% | -21%[46.1 µM] | -25% | . | -1% | . | 28% | -24%
CCOC(=O)c1c(C)oc2cc(Br)c(OC(=O)N3CCOCC3)cc12
→ -93% | ? | ? | -5.1% | -15% | ? | ? | -21%
CCOCCc1nnc(N)s1
→ 8% | -1% | 10% | -1.4% | 2% | -1% | . | 1%
CCC(C)NC(=O)C(Cc1ccccc1)NS(=O)(=O)c1cccc2nsnc12 (configuration not stated)
→ -5% | 2% | 13% | 5.9% | -1% | 14% | 37%[activator] | 23%
COCCN(C(=O)COC(=O)C1CCC(C(C)(C)C)CC1)c1c(N)n(Cc2ccccc2)c(=O)[nH]c1=O (configuration not stated)
→ . | ? | ? | . | 1% | . | ? | 5%
O=C(CCNC(=O)c1ccc([N+](=O)[O-])cc1)NCc1ccccc1
→ . | 2%[46.1 µM] | 6% | . | -4% | . | -14% | 14%
O=C1Nc2ccccc2O/C1=C\c1ccccc1Br
→ 0% | 11%[46.1 µM] | 19%[46.1 µM] | . | -1% | . | -7% | 4%
CC(=O)Nc1ccc(S(=O)(=O)NCCC(=O)NNC(=O)c2ccncc2)cc1
→ . | -5%[46.1 µM] | -6% | . | -1% | . | 10% | -11%
COc1cccc(NC(=O)N2CCCC2C(=O)NCc2ccco2)c1 (configuration not stated)
→ 1% | -15%[46.1 µM] | 30%[46.1 µM] | . | 1% | . | -10% | 41%
COc1ccc(OCC(=O)Nc2c(C(=O)N3CCN(c4ccccc4)CC3)oc3ccccc23)cc1
→ . | . | -3%[46.1 µM] | -2.9% | . | 7% | 49%[activator] | .
O=C(NCCCN1CCCC1)Nc1ccccc1[N+](=O)[O-]
→ 0% | -12% | -18% | . | 2% | . | -5% | -6%
c1ccc(CNn2c(N3CCOCC3)nc3ccccc32)cc1
→ -9% | 10% | -2% | 2.5% | ? | -11% | -2% | 9%
O=C(CSc1nnc(-c2ccco2)n1Cc1ccco1)NCc1ccccc1
→ 8% | 2%[46.1 µM] | 0% | -0.8% | 2% | 2% | 3% | -14%
CC(=O)N1c2ccc(S(=O)(=O)NCC3CCC(C(=O)Nc4cccc(C)n4)CC3)cc2CC1C (configuration not stated)
→ 9% | ? | ? | . | 13% | . | 22µM* | -6%
CC(C)(C)n1nnnc1C(c1ccncc1)N1CCN(C2CCCCC2)CC1 (configuration not stated)
→ -2% | -7% | -3% | 2.7% | 3% | 4% | . | -9%
COC(C[C@H]1O[C@H]1[C@H](O)COCc1ccccc1)OC
→ 4% | -2% | . | . | -4% | . | -6% | -7%
COc1ccc(NC(=O)Nc2ccccc2C(=O)N2CCCC2)cc1
→ 3% | ? | -20% | 8.7% | 2% | 1% | -1% | -10%
